Screening results deposited in PubChem by several laboratories.
eIF4H inh: inhibitors of RNA binding by human eIF4H | Q15056 | eIF4H fluorescence polarization binding assay | inhibition, % at 35 µM | 290,000 compounds, 0.94% hits | AID 2012;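 active means 50% or more with normal probe brightness, or confirmed in later tests; inconclusive means above 50% with abnormal brightness, or retests that disagree; inactive means below 50% or failed in later tests; about a fifth of its hits are not listed in these tables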;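 further: calls also rest on retests at 20 µM and on dose response follow-up; 0% = protein and probe with vehicle and 100% = probe without protein; strong numbers were not always called active; many hits fall short of the cut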
HIV Env fusion: blocks HIV Env-driven cell-cell fusion. inhibition, % at 12.3 µM. 360,000 compounds, 1.1% hits. HeLa-JRFL Env/CEM21 cell fusion, luciferase;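 active means mean replicate inhibition score of at least 50 and every replicate individually at or above 50; inconclusive means only one of the two criteria met; inactive means mean below 50 and not all replicates reaching 50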;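 further: 0% = plate neutral controls and 100% = maraviroc near 300 nM; one replicate is shown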
UUG fidelity: modulators of start codon recognition fidelity in yeast. activity score, % at 18.7 µM. 350,000 compounds, 0.13% hits. S. cerevisiae UUG-firefly luciferase reporter, luminescence/redox ratio. AID 602363;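 active means replicate mean at a twofold rise or more, about +100% in these data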;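 further: firefly luciferase made from a UUG start codon reports start codon fidelity; reporter light over untreated wells divided by growth signal over untreated wells; some hits fall short of that in this replicate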
PABP FP inh: blocks human PABP binding to poly(A) RNA; P11940; fluorescence polarization; inhibition, % at 35 µM; 290,000 compounds, 1% hits;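 active means 50% or more with normal probe brightness, or confirmed in later tests; inconclusive means above 50% with abnormal brightness, or retests that disagree; inactive means below 50% or failed in later tests; about a fifth of its hits are not listed in these tables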;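 further: calls also rest on retests at 20 µM and on dose response follow-up; controls were probe without protein and protein plus probe with vehicle; some compounds called inactive have numbers as strong as hits; many hits fall short of the cut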
Rce1 inhib: blocks yeast Ras-converting enzyme; calls only; 290,000 compounds, 0.27% hits; AID 2563; yeast membranes, quenched prenylated peptide cleavage fluorescence; Q03530;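 active means fall in fluorescence gain of 50% or more versus controls, with final raw signal at or below 3038400; inconclusive means same 50% fall but final raw signal above 3038400; inactive means fall in fluorescence gain under 50%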;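 further: plate controls were neutral control wells for no effect and wells lacking membranes for full effect; tested at 10 µM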
Target sequence (Q03530 whole entry, looked up): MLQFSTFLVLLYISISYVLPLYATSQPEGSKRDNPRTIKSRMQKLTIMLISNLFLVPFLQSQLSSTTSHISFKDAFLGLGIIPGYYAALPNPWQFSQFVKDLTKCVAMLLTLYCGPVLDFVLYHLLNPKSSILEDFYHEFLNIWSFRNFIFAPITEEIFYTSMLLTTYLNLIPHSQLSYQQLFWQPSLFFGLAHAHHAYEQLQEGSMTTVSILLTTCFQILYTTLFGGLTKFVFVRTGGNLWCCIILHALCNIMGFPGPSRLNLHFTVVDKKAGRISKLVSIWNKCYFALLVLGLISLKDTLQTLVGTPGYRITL
CSC inhib: blocks cancer stem cells; 300,000 compounds, 1.1% hits; cancer stem cell-like cells viability, luminescence; inhibition, % at 7.5 µM;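 active means mean at 75% or more and at least half the replicates too; inconclusive means mean and replicates disagree; tested in HMLE shEcad cells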;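 further: 0% = median of negative and 100% = median of positive control wells; the first replicate is given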
MT1-MMP act inh: inhibitors of human MT1-MMP activation; HT1080 RFP-PRO-GFP cells, GFP/RFP ratio fluorescence, overnight; percent of plate control window, DMSO zero; 360,000 compounds, 0.061% hits; GFP/RFP ratio change, % at 20 µM;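 active means GFP/RFP ratio change of at least 30% with cell ATP level not reduced by more than half and red fluorescence within 50% of control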; further: strong numbers were not always called active
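system = RFP-PRO-GFP reporter HT1080 cells | dosing = 20 µM single dose, 1% DMSO | timing = overnight cell settling, then overnight compound exposure, 37 °C, 5% CO2 | read-out basis = GFP/RFP fluorescence ratio | controls = DMSO and RFP-L50D-GFP cell wells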
MT1-MMP act inh RFP: second read-out of MT1-MMP act inh, no call of its own (marks repeat the call); RFP signal change, %; measured here: RFP expression control read;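 0 = vehicle wells; hits needed this value within 50% of zero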
* hit, by the source's call; i = inactive; ? = inconclusive; nt = not tested or not shown. Not all compounds are listed; the hit share may differ from the screen's.

1: Cc1ccc(S(=O)(=O)N2CCCCC2)cc1NC(=O)COC(=O)C1CC2C=CC1C2 (centres undefined)
2: Cc1cccc(C)c1NC(=O)CC(NCc1ccco1)C(=O)O (centres undefined)
3: CN(C)CC(CCC(CN(C)C)C(=O)c1ccccc1)C(=O)c1ccccc1 (centres undefined)
4: O=C(C1CCN(S(=O)(=O)c2ccc(F)cc2)CC1)N1CC=C(c2ccccc2)CC1
5: CN(C)C(CNc1ccc(S(C)(=O)=O)cc1[N+](=O)[O-])c1ccccc1 (centres undefined)
6: CN(C)C=C1C(=O)c2ccccc2C1=O
Screen / compound no.,1,2,3,4,5,6
eIF4H inh,6,-8,-12,-2,-2,1
HIV Env fusion,-3,-7,nt,37,-6,nt
UUG fidelity,-7,-5,nt,-6,-27,32
PABP FP inh,19,-1,3,-2,5,12
Rce1 inhib,i,i,i,i,i,i
CSC inhib,-11,5,nt,13,-6,-6
MT1-MMP act inh,3,-3,9,2,-1,2
MT1-MMP act inh RFP,0,3,-32,1,-1,9

7: CCCSc1nnc2nc(C)cc(C)n12
8: Oc1ccc(N=Nc2ccc3c(c2)OCO3)c2ccccc12
9: CCN(CC)c1ccc(NC(=O)COC(=O)/C=C/c2nc3ccccc3s2)cc1
10: O=C(Nc1ccccc1)Nc1csc2ccccc12
11: COC(=O)C1=C(C)N(c2cc(C)cc(C)c2)/C(=C/c2ccc(O)cc2)C1=O
12: CC1=C(C(=O)N(C(C)C)C(C)C)CC(CC(=O)NCCCCc2ccccc2)C(=O)N1CCC1=CCCCC1 (centres undefined)
Screen / compound no.,7,8,9,10,11,12
eIF4H inh,-3,27,-22,-1,-10,nt
HIV Env fusion,-6,nt,18,-9,-2,45
UUG fidelity,1,nt,nt,-17,nt,-2
PABP FP inh,-13,6,3,-6,2,nt
Rce1 inhib,i,i,i,i,i,nt
CSC inhib,-11,140*,-12,11,nt,nt
MT1-MMP act inh,-1,nt,6,-2,-41,-9
MT1-MMP act inh RFP,3,nt,7,-8,-14,-13

13: COc1ccccc1CNC(=O)C(C)NS(=O)(=O)c1ccccc1 (centres undefined)
14: CCCn1c(N)c(C(=O)CN2CCc3ccccc3C2)c(=O)n(C)c1=O
15: Cc1cc(C)nc(NS(=O)(=O)c2ccc(N/C=C/C(=O)c3ccc(Cl)cc3)cc2)n1
16: CCN1C(=O)/C(=C2/C(=O)N3c4c(cc(OC(C)=O)cc42)C(C)=CC3(C)C)SC1=S
17: O=C(O)c1ccc2c(c1)N(Cc1ccccc1F)C(=O)c1ccccc1S2=O (centres undefined)
18: O=C(CCN1CCCCCC1)Nc1cccc(F)c1
Screen / compound no.,13,14,15,16,17,18
eIF4H inh,1,8,19,3,-2,6
HIV Env fusion,nt,-21,0,-17,8,nt
UUG fidelity,-13,nt,-15,-17,-15,-10
PABP FP inh,5,9,9,-4,-16,-1
Rce1 inhib,i,i,i,i,i,i
CSC inhib,-10,-2,9,55,0,-2
MT1-MMP act inh,-2,-4,2,3,6,9
MT1-MMP act inh RFP,2,-2,-4,-7,1,8

19: Cc1ccccc1N1C(=O)C2CCCN2C1=S (centres undefined)
20: CCOC(=O)C1=C(C)NC(=O)NC1c1ccccc1 (centres undefined)
21: CCC(=O)N1CCC1(C)C(=O)Nc1nccs1 (centres undefined)
22: CCN(CC)C(=O)N1CCc2ccccc2C1CN1C(=O)c2ccccc2C1=O (centres undefined)
23: Cc1ccc(S(=O)(=O)CCC(=O)N(CCCN2CCOCC2)c2nc3ccccc3s2)cc1
24: CCCc1cc(C(=O)Nc2ccc(C#N)cc2)no1
Screen / compound no.,19,20,21,22,23,24
eIF4H inh,nt,-2,nt,nt,nt,3
HIV Env fusion,nt,19,22,nt,-84,8
UUG fidelity,-16,-11,-18,nt,-19,-10
PABP FP inh,nt,-7,nt,nt,nt,-6
Rce1 inhib,nt,i,nt,i,i,i
CSC inhib,-13,-4,nt,-4,9,3
MT1-MMP act inh,-1,1,-3,-2,-2,3
MT1-MMP act inh RFP,0,6,3,-4,-1,3

25: COc1ccc(C(=O)NNC(=O)CN2CCN(c3nc(-c4ccccc4)cs3)CC2)cc1
26: CCC(=O)N1CCc2cc(Br)cc(S(=O)(=O)N3CCCC(C(=O)O)C3)c21 (centres undefined)
27: CS(=O)(=O)c1ccc(-c2cnc3c(NC=O)cc(-c4ccsc4)cn23)cc1
28: O=C(/C=C/c1ccco1)Nc1ccc(Cl)c(S(=O)(=O)N2CCOCC2)c1
29: CCC(C)C(N)C(=O)N1CCCC1C(=O)NC(C(=O)O)C(C)CC (centres undefined)
30: Cc1nc(N2N=C3/C(=C/c4ccc(F)cc4)CCCC3C2c2ccc(F)cc2)sc1C(=O)N(C)C (centres undefined)
Screen / compound no.,25,26,27,28,29,30
eIF4H inh,6,nt,nt,3,nt,2
HIV Env fusion,12,3,-24,-10,4,-10
UUG fidelity,nt,3,-24,-2,15,-17
PABP FP inh,3,nt,nt,-9,nt,1
Rce1 inhib,i,i,nt,i,nt,i
CSC inhib,1,12,nt,-3,nt,nt
MT1-MMP act inh,8,0,-13,-4,1,-30
MT1-MMP act inh RFP,3,1,1,-29,5,-14

31: CC(C)C1OC2(C)OC(=N)C1(C#N)C(C#N)(C#N)C2c1ccccc1 (centres undefined)
32: Cc1ccc(C)c(N2CCN(C(=O)c3ccc(N4CCOCC4)c([N+](=O)[O-])c3)CC2)c1
33: Cc1ccc(S(=O)(=O)N/N=C\c2cccnc2)cc1
34: CCSc1nc(O)c(Cc2ccccc2)c(=O)[nH]1
35: S=C(NCc1ccccc1)NNc1nc2ccccc2[nH]1
36: O=C1CCc2cc(S(=O)(=O)NCc3ccc(F)cc3)cc3c2N1CCC3
Screen / compound no.,31,32,33,34,35,36
eIF4H inh,?,-20,5,-2,9,nt
HIV Env fusion,-15,4,-30,1,9,-3
UUG fidelity,-14,-14,-16,-17,nt,nt
PABP FP inh,-2,9,-12,-1,-3,nt
Rce1 inhib,i,i,i,nt,i,i
CSC inhib,-12,48,-22,-11,2,3
MT1-MMP act inh,-11,0,-2,-6,4,1
MT1-MMP act inh RFP,21,-7,1,-9,2,-1

37: O=C(c1ccc(-n2cnnn2)cc1)N1CCCCC1
38: Cc1cc(C)c2c(n1)sc1c(=O)n(Cc3ccc(F)cc3)cnc12
39: CCN(CC)c1ccc(C=Nc2ccc(C)cc2)c(O)c1
40: Cc1c(Cl)cnc(NC(=O)COC(=O)c2cccs2)c1Cl
41: CC(=O)Nc1sc(N/N=C/c2ccc(O)cc2)nc1-c1ccc(C)cc1
42: COc1ccccc1NC(=O)Cn1c(=O)sc2ccccc21
Screen / compound no.,37,38,39,40,41,42
eIF4H inh,-5,0,8,nt,-1,-5
HIV Env fusion,nt,-1,nt,nt,-120,nt
UUG fidelity,-27,nt,-11,-10,nt,-13
PABP FP inh,-5,0,8,nt,4,-10
Rce1 inhib,i,i,nt,nt,i,i
CSC inhib,1,2,7,-7,19,-10
MT1-MMP act inh,1,3,-1,-3,0,4
MT1-MMP act inh RFP,0,-5,1,2,4,2

43: COc1ccc(NC(=O)CN(C)C(=O)c2cc(C)oc2C)cc1
44: CCCCN(C(=O)c1ccc(C)c(S(=O)(=O)N2CCOCC2)c1)c1c(N)n(CCCC)c(=O)[nH]c1=O
45: CC(OC(=O)c1nc(Cl)ccc1Cl)C(=O)Nc1ccc2c(c1)OCCO2 (centres undefined)
46: Cc1ccc(C(=O)Nc2ccc(C(=O)O)cc2NC(=O)c2ccc(C)cc2)cc1
47: CC(=O)N1N=C(c2ccc(Br)cc2)CC1c1ccc(Br)cc1 (centres undefined)
48: COc1cccc(C(=O)CN(C(=O)c2ccc(Cl)c(Cl)c2)N2C(=O)C3CCCCC3C2=O)c1 (centres undefined)
Screen / compound no.,43,44,45,46,47,48
eIF4H inh,nt,nt,nt,-6,nt,-3
HIV Env fusion,6,20,-14,-6,-26,-31
UUG fidelity,-4,5,nt,-12,-4,-10
PABP FP inh,nt,nt,nt,1,nt,-7
Rce1 inhib,nt,i,i,nt,nt,i
CSC inhib,nt,-2,-16,7,nt,-4
MT1-MMP act inh,4,4,-1,1,-1,5
MT1-MMP act inh RFP,9,4,2,3,-4,-5

49: Cc1nn(CC(=O)NC2(C#N)CCCCC2)c(C)c1[N+](=O)[O-]
50: O=c1[nH][nH]c(-c2ccccc2)c1C=Nc1ccc(F)cc1F
51: COCCCNC(=O)c1c(-c2ccccc2)noc1C
52: CCCCN(C(=S)Nc1ccc(F)cc1)c1c(N)n(CCC)c(=O)[nH]c1=O
53: CC(C)(C)c1ccc(C(=O)Nc2cccc(-n3cnnn3)c2)cc1
54: COc1ccc(S(=O)(=O)Nc2c(C(=O)O)[nH]c3ccccc23)c(OC)c1
Screen / compound no.,49,50,51,52,53,54
eIF4H inh,nt,2,-2,-9,-4,1
HIV Env fusion,-4,8,nt,-4,-118,14
UUG fidelity,7,-3,-13,nt,10,-10
PABP FP inh,nt,5,2,3,-3,2
Rce1 inhib,nt,i,i,i,i,i
CSC inhib,-11,-5,-11,-14,12,-12
MT1-MMP act inh,2,nt,11,3,6,-4
MT1-MMP act inh RFP,0,nt,9,3,-6,9

Structures from the list above containing bromine:
26: CCC(=O)N1CCc2cc(Br)cc(S(=O)(=O)N3CCCC(C(=O)O)C3)c21 (centres undefined)
47: CC(=O)N1N=C(c2ccc(Br)cc2)CC1c1ccc(Br)cc1 (centres undefined)
Screen / compound no.,26,47
eIF4H inh,nt,nt
HIV Env fusion,3,-26
UUG fidelity,3,-4
PABP FP inh,nt,nt
Rce1 inhib,i,nt
CSC inhib,12,nt
MT1-MMP act inh,0,-1
MT1-MMP act inh RFP,1,-4

Next compounds:
55: N=c1c(S(=O)(=O)c2ccccc2)cc2c(=O)n3ccccc3nc2n1CCCN1CCOCC1
56: CC(=O)Nc1ccc(NC(=O)CCn2c(=O)oc3ccccc32)cc1
57: CCc1cccc(NC(=O)Cn2cc3c(n2)CCCC3)c1
58: O=C1CSC(=O)N1CCOCCN1C(=O)CSC1=O
59: COC(=O)COc1ccc(/C=C2/NC(=O)N(CC(=O)OC)C2=O)cc1
60: Nc1nc(N2CCCCC2)c2ncn(C3OC(CO)C(O)C3O)c2n1 (centres undefined)
61: O=C(Nc1ccc2c(c1)OCCO2)c1ccccc1F
62: CC(C)CN1CCC(=O)N([C@H](CN=[N+]=[N-])Cc2ccccc2)CC1
Screen / compound no.,55,56,57,58,59,60,61,62
eIF4H inh,48,-12,2,-15,2,nt,7,22
HIV Env fusion,-1,nt,5,-19,13,-11,nt,-2
UUG fidelity,-9,-10,-10,-1,nt,-11,-48,-19
PABP FP inh,50,-3,4,-10,18,nt,-3,13
Rce1 inhib,i,i,i,i,i,nt,i,i
CSC inhib,-4,-15,nt,-3,-2,nt,0,-5
MT1-MMP act inh,-7,1,-3,-2,-1,-1,-3,2
MT1-MMP act inh RFP,-1,6,1,3,-1,3,2,4
